Screens (PubChem)
Cruzain inh noDet: blocks cruzain activity in detergent-free assay. P25779. purified cruzain, Z-FR-AMC fluorescence, no detergent. Potency, µM, without a hit: max response, negative = inhibition, usual class: inhibitors. 200,000 compounds, 2.3% hits. AID 1476;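 also: plate controls were enzyme without inhibitor for no effect and buffer without enzyme for full effect; nearly all actives have a fitted effect of over 40% in size; top concentration of the series not given in the record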
Target sequence (P25779 123-467 limits assumed): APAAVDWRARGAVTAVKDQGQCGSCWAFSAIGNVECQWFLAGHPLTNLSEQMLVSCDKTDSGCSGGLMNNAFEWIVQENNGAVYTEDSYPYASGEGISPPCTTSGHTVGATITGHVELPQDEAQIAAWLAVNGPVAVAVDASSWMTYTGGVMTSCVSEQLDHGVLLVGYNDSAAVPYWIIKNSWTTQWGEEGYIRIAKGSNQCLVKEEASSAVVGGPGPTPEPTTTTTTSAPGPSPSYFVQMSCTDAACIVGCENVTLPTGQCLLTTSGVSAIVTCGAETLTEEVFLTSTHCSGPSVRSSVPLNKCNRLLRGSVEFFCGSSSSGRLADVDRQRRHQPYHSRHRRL
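Purified cruzain at 1.5 nM, pre-incubated 15 min with compound at room temperature in 100 mM sodium acetate pH 5.5, 5 mM DTT, 0.00005% Triton X-100. Reaction started with 2 uM Z-FR-AMC; AMC fluorescence increase over 60 s gives rate.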
RE007 growth inh: less growth of the S. pombe RE007 Vpr strain | S. pombe RE007 Vpr strain, BacTiter-Glo ATP luminescence, 24 h; control for the full effect not named in the record | Potency, µM (highest dose often 92.2 µM), without a hit: at the top dose activity change, negative = less growth | 360,000 compounds, 0.21% hits; active = well fitted falling curve with a large enough effect; inconclusive = small, poorly fitted or top-dose-only effect; inactive = no such curve, though single readings can be large or run the other way;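 also: % is scaled to controls: 0 for no effect and ±100 for the full control effect; nearly all actives have a fitted effect of over 50% in size; the assay follows cell death caused by Vpr and the record does not say whether a fall means rescue or toxicity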
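Fission yeast RE007 carrying one integrated HIV-1 vpr copy, seeded at OD 0.01 in PMG+AL medium with 23 nL pinned compound. Grown 24 h at 30 degrees; viability read by BacTiter-Glo luminescence after 5 min.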
StopGo reporter: FMDV 2A StopGo reporter, luciferase signal; human cells with a luciferase reporter of 2A StopGo recoding; control for the full effect not named in the record; AID 1159524; Potency, µM (highest dose often 57.9 µM), inactives show at the highest dose signal change, negative = less light; 410,000 compounds, 1.2% hits; active = well fitted falling curve with a large enough effect; inconclusive = small, poorly fitted or top-dose-only effect; inactive = no such curve, though single readings can be large or run the other way; tested in HEK293T cells; also: % is scaled to controls: 0 for no effect and ±100 for the full control effect; nearly all actives have a fitted effect of over 45% in size; luciferase light after 4 h
SARS PLP yeast: blocks SARS-CoV papain-like protease in a yeast assay; Potency, µM (top dose mostly 32.9 µM), for inactives: at the top dose activity, positive = growth rescue; 330,000 compounds, 0.19% hits; S. cerevisiae expressing SARS-CoV PLpro, growth rescue; control for the full effect not named in the record; active means well fitted rising curve with a large enough effect; inconclusive means small, poorly fitted or top-dose-only effect; inactive means no such curve, though single readings can be large or run the other way; also: 0% is about no effect; nearly all actives have a fitted effect of over 55% in size; growth read by luminescence after 48 h
Marburg entry inh: Marburg virus entry inhibition. Marburg virus pseudotyped entry inhibition, cell reporter; control for the full effect not named in the record; about a third of the inactives were read at about 46 µM. Potency, µM (series often up to 37.8 µM), without a hit: at the top dose activity change, negative = inhibition, usual class: inhibitors. 300,000 compounds, 1.8% hits; active = well fitted inhibition curve with a large enough effect; inconclusive = small, poorly fitted or top-dose-only effect, or effect the other way; inactive = flat fitted curve, though single readings scatter; tested in HEK293 cells; about a fifth of its hits are not listed in these tables; also: % is scaled to controls: 0 for no effect and ±100 for the full control effect; luciferase read-out
Cruzain inh Det: cruzain (T. cruzi) inhibition with detergent | purified cruzain, Z-FR-AMC fluorescence, 0.01% Triton | Potency, µM, for inactives: max response, negative = inhibition, actives largely listed as inhibitors | 200,000 compounds, 0.43% hits | P25779;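 also: plate controls were neutral wells for no effect and buffer without enzyme for full effect; nearly all actives have a fitted effect of over 40% in size; top concentration of the series not given in the record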
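Purified cruzain (1.5 nM final) was preincubated with compounds for 15 min at room temperature in 100 mM sodium acetate pH 5.5, 5 mM DTT, 0.01% Triton X-100. Reaction started with 2 uM Z-FR-AMC; AMC fluorescence change over 60 s gave activity.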
Lassa entry inh: Lassa virus entry inhibition; Lassa virus pseudotype entry inhibition, cell reporter; control for the full effect not named in the record; Potency, µM (series often up to 37.9 µM), without a hit: at the highest dose activity change, negative = inhibition, usual class: inhibitors; 300,000 compounds, 1.2% hits; active means well fitted inhibition curve with a large enough effect; inconclusive means small, poorly fitted or top-dose-only effect, or effect the other way; inactive means flat fitted curve, though single readings scatter; tested in HEK293 cells; also: % is scaled to controls: 0 for no effect and ±100 for the full control effect; nearly all actives have a fitted effect of over 50% in size; luciferase read-out
NS1 function inh: blocks influenza NS1 protein function; S. cerevisiae slowed by influenza A NS1, growth recovery by OD600; Potency, µM (top dose mostly 46.1 µM), for the others: top-dose activity, positive = more growth; 270,000 compounds, 0.4% hits; AID 2326; active means well fitted rising curve with a large enough effect; inconclusive means small, poorly fitted or top-dose-only effect; inactive means no such curve, though single readings can be large or run the other way; also: nearly all actives have a fitted effect of over 50% in size
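Growth recovery, yeast-based: influenza A NS1 expressed in S. cerevisiae causes slow growth, and suppressors are detected by OD600. The parent strain without NS1 is used as positive control.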
* marks the source's active call; other numbers are inactive results; ? = inconclusive; . = no result given; & = joins results of further samples; [ ] = remark or other dose. Unless noted, calls follow the shape of the dose curve; as a rule, active = well fitted curve in the direction sought with a large enough effect; inconclusive = small, poorly fitted or top-dose-only effect, or another doubt; inactive = no such curve, though single readings can be large; an effect the other way counts as inactive or inconclusive. Potency is read from the fitted curve at half-maximal effect. No enrichment for hits, and some 4.7% of all compounds hit somewhere here.

SMILES	Cruzain inh noDet	RE007 growth inh	StopGo reporter	SARS PLP yeast	Marburg entry inh	Cruzain inh Det	Lassa entry inh	NS1 function inh
CC(OC(=O)C1CCCO1)C(=O)NC1CCCC1 (stereo not given)	-6%	-11%	-2%	-5%	5%	8.3%	8%[14.3 µM]	4%
CCCc1cc(-c2[nH]ncc2-c2ccc3c(c2)OCCCO3)c(O)cc1OC	6%	.	.	-47%	8%	-7.8%	.	-69%
COc1cccc(NC(=O)c2cnn(-c3ccccc3)c2-n2cccc2)c1	-8%	.	-26%	.	.	-8.6%	8%[46.1 µM]	.
COc1ccc(Br)c(/C=N/NC(=O)COc2ccc(-c3ccccc3)cc2)c1	20µM*	14%	7%	.	4%[46.1 µM]	-1.7%	-8%	?
C=CCSc1ccccc1C(=O)Nc1ncn[nH]1	.	-16%	0%	1%	.	.	.	2%
CCCCc1ccc(N=N/C(C(=O)Nc2ccccc2OC)=C(/C)O)cc1	-4%	3%	?	-9%	-3%	-7.5%	7%	4%
O=C(CC1OC(=O)c2ccccc21)Nc1cc(Cl)ccc1N1CCCC1 (stereo not given)	.	-6%	-14%	-1%	4%[46.1 µM]	.	20%	.
O=C(NC1CCCc2ccccc21)C1CCN(S(=O)(=O)c2ccccc2F)CC1 (stereo not given)	?	.	13%	20%	?	-1.4%	-11%	-19%
COCCn1c(N)c(NCc2ccccc2)c(=O)[nH]c1=O	.	9%	-9%	-1%	?	.	3%[46.1 µM]	-3%
FC(c1nc2ccccc2[nH]1)C(F)(F)F (stereo not given)	.	-7%	-3%	-1%	-5%[46.1 µM]	.	1%	-1%
CN(C)c1ccc(C2N(C(=O)N3CCOCC3)CCN2S(=O)(=O)c2ccccc2)cc1 (stereo not given)	0%	9%	-8%	-2%	-3%	-2.1%	-13%	-46%
Cc1ccc(-n2nc(CO)c(C(=O)NCCc3ccccc3)n2)cc1C	-9%	.	-6%	.	0%[46.1 µM]	-0.2%	?	.
O=C(O)c1ccccc1Sc1c([N+](=O)[O-])cc(C(F)(F)F)cc1[N+](=O)[O-]	.	-10%	?	4%	1%[46.1 µM]	.	12%	.
COC(=O)c1ccccc1NC(=O)CCCn1c(=O)c2cccn2c2cccnc21	-8%	.	0%	.	.	-5.1%	24%[46.1 µM]	.
CCO/N=C/C1=C(O)C(C(=O)OC)C(C)(C)CC1=O (stereo not given)	.	0%	-12%	1%	0%[46.1 µM]	.	12%	?
Cc1ccc(N2CC(NC(=O)c3cccs3)CC2=O)cc1C (stereo not given)	5%	.	-13%	.	.	0.1%	1%[46.1 µM]	.
Cc1ccc(CN2CCS(=O)(=O)CC2)o1	.	7%	-1%	2%	?	.	-1%[46.1 µM]	.
COc1ccc(CCNC(=O)C(=O)NCC2CCNCC2)cc1OC	.	-6%	-21%	1%	.	.	.	0%
COc1cc2c(cc1OC)n(Cc1cccc(C(F)(F)F)c1)c(=O)n1nc(-c3ccccc3)nc21	8%	.	0%	.	-1%[46.1 µM]	1.9%	17%[46.1 µM]	.
O=S(=O)(c1ccc(Br)cc1)N1CCN(Cc2ccco2)CC1	.	12%	-8%	-2%	4%	.	-3%	-9%
Cc1cccc(CN2CCN(Cc3nc4c(s3)CCCC4)CC2CCO)n1 (stereo not given)	.	-17%	-3%	0%	.	.	.	1%
COc1cccc(CNC(=O)COc2ccc(C(=O)c3ccccc3)cc2)c1	.	-8%	?	0%	-31%[46.1 µM]	.	?	-67%
NC(=O)CC(NC(=O)c1ccc(Br)cc1)c1ccc(N2CCC(Cc3ccccc3)CC2)c([N+](=O)[O-])c1 (stereo not given)	.	-7%	?	4%	.	.	.	13%
COc1ccc(CCC(C)NC(=O)Cc2ccc(OC)c(OC)c2)c(OC)c1 (stereo not given)	.	24%	?	0%	.	.	.	-6%
O=C(O)C1CCN(c2ccccc2[N+](=O)[O-])CC1	.	15%	12%	2%	19%	.	10%	.
Cc1ccc2c(C)c(C(=O)Nc3c(C)n(C)n(-c4ccccc4)c3=O)oc2c1	-7%	2%	-1%	1%	-1%	1.3%	-18%	-6%
NN1C(=O)c2cccc3c(C(=O)O)ccc(c23)C1=O	-6%	-8%	43%[activator]	11%	27%	-12%	-1%	6%
CC(=O)N1CCc2cc(S(=O)(=O)NC(Cc3ccccc3)C(=O)Nc3cc(C)ccn3)ccc21 (stereo not given)	?	-1%	.	-8%	-5%	4.2%	4%	-6%
CC(OC(=O)CCN=C1NS(=O)(=O)c2ccccc21)C(=O)Nc1ccc(S(N)(=O)=O)cc1 (stereo not given)	.	-3%	-18%	-8%	?	.	18%	.
CCn1cc(C(=O)O)c(=O)c2cc(F)c(N3CCN(C(=S)NC(=O)c4ccc(Br)cc4)CC3)cc21	.	4%	?	11%	-21%[46.1 µM]	.	-8%	.
COc1ccc(N2C(=O)CC(Sc3nc4ccccc4s3)C2=O)cc1 (stereo not given)	.	-22%	20%	-6%	?	.	5%	.
O=S(=O)(c1cccs1)N1CCN(CCc2ccccc2)CC1	.	10%	?	3%	-19%	.	?	-13%
COC(=O)c1ccccc1NC(=O)CN(c1cc(OC)ccc1OC)S(C)(=O)=O	?	2%[3.69 µM]	-7%	0%	?	-2.3%	-2%	-11%
COC(=O)c1nnn(-c2ccc(Br)cc2)c1C(=O)OC	-3%	.	-12%	.	9%[46.1 µM]	-2.5%	10%[46.1 µM]	.
COc1ccc(C(C)(C)NC(=O)C2CCC(=O)N(C3CCCC3)C2)cc1OC (stereo not given)	.	-2%	10%	-1%	16%	.	11%	-4%
CCN(CC)S(=O)(=O)c1cc(C)c(C)cc1Br	8%	-9%	0%	-27%	?	-0.1%	1%	-10%
Cc1cccc(CSCc2nnc(N)s2)c1	-6%	19%	4%	4%	?	2.2%	4%	-6%
COc1ccc(-n2ncc3c2CC(C)(C)CC3NC(=O)CN2CCOC2=O)cc1 (stereo not given)	.	31%	12%	-2%	?	.	?	-11%
O=C(CSc1ncn(-c2ccccc2)n1)Nc1nc2c(s1)CCCC2	-10%	?	13%	-13%	1%	-22%	-1%	-16%
O=C(Nc1nc2n(n1)C(c1ccccc1)C=C(c1ccccc1)N2)c1ccc(Cl)c([N+](=O)[O-])c1 (stereo not given)	?	.	-22%	.	?	-11%	?	.
Cc1cc(C(=O)CCl)c(C)n1CC1COc2ccccc2O1 (stereo not given)	.	3%	13µM*	-17%	?	.	-4%	.
CN(C)c1ccc(/C=C/c2ccncc2)cc1	-7%	-8%	69%[activator]	-1%	10%	-4.5%	?	-11%
COCCNC(=O)c1ccc2c(Cl)c3c(nc2c1)CCC3	.	-27%	34%[activator]	-1%	?	.	14%	-7%
CN(C1CCCCC1)S(=O)(=O)c1ccc2c(c1)c(=O)c(C(=O)N1CCN(c3ccccc3F)CC1)cn2C	-5%	.	5%	.	?	-0.1%	11%[46.1 µM]	.
CN(C)Cc1cc(C(C)(C)C)cc(N2CCOCC2)c1O	.	4%	6%	.	0%[46.1 µM]	.	1%[46.1 µM]	.
Cc1cccc(N2CCN(S(=O)(=O)c3c(C(=O)N4CCC(C)CC4)c(C)n(C)c3C)CC2)c1C	?	.	-13%	.	.	-6.5%	?	.
Cc1ccc(C(=O)CCC(=O)OCC(=O)Nc2c(C)nn(-c3ccccc3)c2C)cc1	.	30%	2%	0%	?	.	5%[46.1 µM]	.
COc1ccc(Cl)cc1N(CC(=O)N1CCN(Cc2ccccc2)CC1)S(C)(=O)=O	10%	-8%	8%	-5%	-11%	-0.1%	1%	-1%
CC(C)(CNC(=O)C1CCCC1)CNC(=O)C1CCCC1	-6%	0%	-8%	0%	-20%	-0.8%	-2%	9%
Cc1cc([N+](=O)[O-])nn1CC(=O)Nc1cccc2nonc12	.	-7%	-19%	-1%	-6%	.	?	.
CC(C)(C)NC(=O)/C(=C\C=C\c1ccccc1)NC(=O)c1ccc([N+](=O)[O-])cc1	6%	-20%	-9%	-1%	?	-3.6%	-16%	1%
COc1ccc(S(=O)(=O)N2CCC(C(=O)NCc3cccc(OC)c3)CC2)cc1	12%	18%	-17%	-5%	-6%[46.1 µM]	0.1%	-2%	-13%
CCOn1c(=O)c(-c2ccc(Cl)cc2)[n+]([O-])c2ccccc21	-5%	?	-21%	18%	13%	-3.2%	9%	8%
CCOc1ccccc1OCCCNCc1ccccc1	.	-12%	-13%	-3%	-7%	.	-23%	10%
Nc1c(C(=O)CSc2nnc(N3CCOCC3)n2-c2cccc(F)c2)c(=O)[nH]c(=O)n1C1CC1	.	5%	-12%	-1%	10%	.	4%	.
Cn1ccc(C(=O)Nc2ccc(Br)cc2Br)n1	3%	-10%	-9%	5%	?	-2.7%	?	4%
COCc1nnc(NC(=O)c2ccc(S(=O)(=O)N(CC(C)C)CC(C)C)cc2)o1	.	6%	-18%	?	?	.	?	.
Cc1ccc(CN2CCC(CNS(=O)(=O)c3ccc(-c4ccc(=O)[nH]n4)s3)CC2)cc1	.	0%	-11%	4%	.	.	.	11%
Cc1onc(-c2ccccc2)c1C(=O)N1CCN(C(=O)c2ccco2)CC1	-29%	0%	.	-3%	3%	3.1%	?	5%
CCOC(=O)c1c(NC(=O)C2=C(C)NC(=S)NC2c2ccccc2C(F)(F)F)sc(C)c1C (stereo not given)	7%	-5%	-19%	9%	?	-0.9%	-29%	9%

The list goes on:
SMILES	Cruzain inh noDet	RE007 growth inh	StopGo reporter	SARS PLP yeast	Marburg entry inh	Cruzain inh Det	Lassa entry inh	NS1 function inh
COC(=O)CCCC1=CC2=C(c3ccccc3)C(=O)C(C)(OC(=O)C3CCCC3)C(=O)C2=CN1CCc1ccccn1 (stereo not given)	.	1%	4%	-5%	-21%&-21%[14.2 µM]	.	.	3%
COc1cccc(/C=N/Nc2ccc([N+](=O)[O-])cc2)c1O	.	11%	19%	-4%	?	.	10%	-5%
COc1ccnc(-n2cccc2C=O)c1C#N	.	36%	-7%	-1%	27%[46.1 µM]	.	12%	.
CCc1ccc(C2=NN(CCC(=O)NCCc3ccccc3)C(=O)CC2)cc1	?	.	-12%	.	.	-3.0%	-16%[46.1 µM]	.
